Vif A3G – inhibitors of Vif binding to APOBEC3G peptide, primary screen, biochemical, TR-FRET, GST-Vif 1-94, biotin-A3G peptide, dose response retest (AID 1117319) | 0.57% of 260,000 active | TR-FRET GST-Vif / biotin-A3G peptide binding; higher % means a stronger effect; test concentration not given here; strong numbers were not always called active | inhibition, %, or IC50 in µM where a hit was titrated;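 active = above the screen mean plus three standard deviations and confirmed in dose response; inconclusive = results disagree or hit not tested in dose response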;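 note: Vif residues 1-94 fused to GST binding biotinylated APOBEC3G peptide 110-148; 0% = full assay without inhibitor and 100% = GST in place of GST-Vif; retest series ran down from 100 µM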
Calb FLC – C. albicans growth modulation with fluconazole. C. albicans CaCi-2 (fluconazole-resistant clinical isolate) + fluconazole, Alamar Blue growth, 48 h. growth inhibition, % (test concentration not listed). 0.57% of 300,000 active;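 active = most replicates above 75%; inconclusive = exactly half above 75%; inactive = most below 75%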;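 note: all wells also contain fluconazole at 8 µg/ml as a sub-toxic cotreatment; 0% = median of DMSO wells and 100% = median of geldanamycin control wells; wells of about 8 µL received 7.5 nL stock; the first replicate is given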
MLL AF4-AF9 inh – inhibitors of human MLL-AF4/AF9 interaction; P42568; AlphaScreen, biotin-AF4 peptide binding to FLAG-AF9; inhibition, % at 10 µM; 0.47% of 350,000 active; AID 651704;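 active = every replicate reaching a set inhibition limit, whatever the replicate mean, cut at about 25% in these data; inconclusive = mean inhibition reaches that limit but some replicates miss it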;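 note: 0% = plate neutral control median and 100% = total signal loss; the record names both 10 and 1 µM as test concentration; the first replicate is given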
Target sequence (P42568 whole entry, looked up): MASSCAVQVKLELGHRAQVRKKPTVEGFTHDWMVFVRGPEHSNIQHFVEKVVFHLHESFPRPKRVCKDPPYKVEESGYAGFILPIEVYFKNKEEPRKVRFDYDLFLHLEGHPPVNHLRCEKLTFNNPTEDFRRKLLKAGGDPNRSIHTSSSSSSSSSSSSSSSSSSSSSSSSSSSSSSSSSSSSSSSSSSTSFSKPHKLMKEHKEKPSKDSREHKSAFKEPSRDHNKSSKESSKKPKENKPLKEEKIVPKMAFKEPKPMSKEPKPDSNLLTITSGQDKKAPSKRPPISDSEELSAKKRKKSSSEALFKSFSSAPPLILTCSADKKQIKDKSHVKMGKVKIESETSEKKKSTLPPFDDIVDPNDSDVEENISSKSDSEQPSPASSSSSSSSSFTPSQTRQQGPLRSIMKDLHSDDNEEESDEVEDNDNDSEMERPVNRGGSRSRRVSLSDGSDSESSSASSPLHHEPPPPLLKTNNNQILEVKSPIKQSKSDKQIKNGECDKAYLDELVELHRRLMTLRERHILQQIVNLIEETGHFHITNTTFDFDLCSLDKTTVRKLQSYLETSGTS
Ecoli rRNA inh – inhibitors of bacterial rRNA selective over humanized ribosomes; GFP signal change (wild-type ribosome), % (no concentration beside the values); E. coli WT GFP vs humanized-ribosome RFP mutants, fluorescence, 24 h; stronger effect = lower value; DMSO median 0, no signal -100; 1.6% of 350,000 active; AID 720706;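 active = significant combined selectivity score with lowered wild-type GFP, culture density cut under 30%, mutant RFP and density less affected; inactive = any of these conditions unmet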; note: one replicate is shown; some compounds called inactive have numbers as strong as hits
Beta apoptosis – beta cell apoptosis inhibition; INS-1E cytokine-induced death, ATP luminescence, 48 h; percent of positive-control rescue, neutral wells zero; protection from apoptosis, % (no concentration beside the values); 0.8% of 300,000 active;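 active = all replicates at 75% or more, or half of them and the mean; inconclusive = half reach 75% but not the mean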;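 note: 0% = cytokine-treated negative control wells and 100% = positive control rescue; higher means more ATP so stronger rescue from cytokine killing; wells of about 40 µL received 100 nL stock; the first replicate is given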
T cruzi inh – T. cruzi replication inhibition. T. cruzi beta-gal in NIH3T3, luminescence, 90 h. inhibition, % (no concentration beside the values). 1.4% of 300,000 active. AID 1885;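 active = mean inhibition across valid replicates above about 55%, limit read from the data; inconclusive = mean below that limit but half or more replicates reach it; inactive = mean below it, under half of replicates reach it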;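 note: signal also drops with host cell toxicity which is not excluded here; 0% = plate median of DMSO wells and 100% = zero luminescence signal; higher percent means less beta-gal luminescence so fewer parasites; stock transfer was 50 nL into about 50 µL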
A1 inh – inhibitors of the anti-apoptotic protein A1, read as caspase activation | caspase activation, % (no concentration beside the values) | 0.066% of 330,000 active | AID 2462 | MEF A1-2A-BIM cells, Caspase-Glo 3/7 luminescence, 3 h; percent of clofoctol response, vehicle zero;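 active = over half of replicate activation scores above 10%, or exactly half above 10 with the replicate mean above 10; inconclusive = replicate mean below 10 yet half the replicates above 10; inactive = over half of replicates below 10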;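 note: wells of about 30 µL received 50 nL stock; many hits fall short of the cut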
RanGTP-Impb inh – disruptors of Ran-importin-beta complex formation – biochemical, FRET, CFP-Ran, YFP-importin-beta, homogeneous, primary screen; cell-free CFP-Ran/YFP-importin-beta FRET ratio; inhibition, % (no concentration beside the values); 1.1% of 300,000 active; AID 2216;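 active = most replicates above 15%; inconclusive = exactly half above 15%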;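 note: 0% = DMSO wells and 100% = Ran loaded with GDP instead of GTP; wells of about 40 µL received 100 nL stock; the first replicate is given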
Ecoli rRNA inh OD600 – further read-out of Ecoli rRNA inh, marked with its call; OD600 change, %; measured here: OD600 growth;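 optical density of the mix in the first replicate; 0 = DMSO median and -100 = no signal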
Ecoli rRNA inh RFP – second read-out of Ecoli rRNA inh, no call of its own (marks repeat the call); RFP signal change, %; measured here: RFP humanized mutant strains;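 first replicate; 0 = DMSO median and -100 = no signal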
* = called active by the depositor; ? = inconclusive; / = not tested or not shown.

SMILES | Vif A3G | Calb FLC | MLL AF4-AF9 inh | Ecoli rRNA inh | Ecoli rRNA inh OD600 | Ecoli rRNA inh RFP | Beta apoptosis | T cruzi inh | A1 inh | RanGTP-Impb inh
COc1cc(CCC(=O)Nc2cccc(S(=O)(=O)N(C)C)c2)cc(OC)c1OC | -2% | -10 | / | / | / | / | -4 | -31 | 1.1 | -0.8
O=C(CSc1ncc(-c2ccc(F)cc2)[nH]1)NCc1ccco1 | ? | -6 | / | / | / | / | 2 | 3 | -0.5 | -4.7
COc1ccc(NC(=O)N2CCN(S(C)(=O)=O)CC2)c(OC)c1 | / | -5 | -2.0 | 7 | 10 | 6.4 | -2 | -6 | 0.3 | -2.1
Cc1ccc(C(=O)c2ccccc2C(=O)OCC(=O)N2CCCC2)cc1 | -10% | / | -2.3 | 4 | 6 | 0.2 | -2 | / | -0.3 | /
CCOC(=O)N1CCC(N2CCN(S(=O)(=O)c3ccc(Cl)cc3)CC2)CC1 | 7% | 12 | / | / | / | / | 7 | 16 | 0.1 | 2.9
CCc1nnc(NC(=O)C2CCCN2S(=O)(=O)c2ccc(C)cc2)s1 (stereo unspecified) | 1% | 4 | / | / | / | / | 1 | 6 | 0.2 | ?
O=C(CNC(=O)c1cccs1)N/N=C/c1cccc(Br)c1 | / | 8 | -11 | 1 | 7 | -0.3 | / | 6 | / | -0.5
O=C(NNC(=S)Nc1ccc(Cl)cc1Cl)c1cccnc1 | 5% | / | 0.9 | -6 | -2 | 0.0 | 1 | / | 1.2 | /
CCOC(=O)CN1C(=O)C(O)=C(C(C)=O)C1c1ccc([N+](=O)[O-])cc1 (stereo unspecified) | 32% | -3 | / | / | / | / | / | -22 | -0.5 | 5.6
COc1ccc(CN2CCN(C(C)C)C(CCO)C2)cc1Cn1cccn1 (stereo unspecified) | / | -18 | 2.4 | 8 | 1 | 0.5 | -11 | 7 | -0.1 | -1.0
Cc1cccc(NC(=O)C2c3ccccc3C(=O)N3CCc4ccccc4C23)n1 (stereo unspecified) | 14% | -11 | / | / | / | / | -1 | 15 | 0.0 | ?
CC1=C(C(=O)Nc2cccc(C(=O)NC3CCCC(C)C3C)c2)SCCO1 (stereo unspecified) | 4% | -8 | 2.8 | -32 | -31 | -12 | -1 | -9 | 0.4 | 0.0
Cc1cc(=O)c2ccccc2s1 | 13% | 1 | -3.3 | 17 | 11 | 2.7 | -3 | -5 | 0.2 | ?
CCS(=O)(=O)c1ccc(O)c(NC(=O)COc2ccc(OC)cc2)c1 | 11% | -12 | / | / | / | / | -2 | 9 | 0.5 | 3.0
N#CC(C#N)=Cc1ccc(OCC(=O)N2CCOCC2)cc1 | 3% | 0 | -2.4 | 13 | 10 | 1.8 | 10 | -15 | 0.4 | -4.6
COC(=O)C1=C(C)NC(=O)/C1=C\c1cc(C)n(-c2cccc(C)c2)c1C | ? | 19 | / | / | / | / | -16 | 15 | -0.4 | -2.0
CCN(CC)S(=O)(=O)c1ccc(N2CCOCC2)c(NC(=O)COc2ccccc2C)c1 | / | / | -0.9 | 4 | 8 | -0.5 | 9 | / | -1.3 | /
CC1CCN(S(=O)(=O)c2ccc3c(c2)n(C)c(=O)n3C)CC1 | / | 8 | 1.0 | 4 | 11 | -1.3 | -3 | -13 | 1.2 | 2.5
CC(=O)c1ccc(Oc2ncnc(N)c2[N+](=O)[O-])cc1 | / | -6 | 1.7 | 13 | 8 | 0.0 | -19 | -16 | 1.4 | -0.6
CN(C)S(=O)(=O)c1ccc(NC(=O)Cn2ccsc2=N)cc1 | -6% | -11 | -0.4 | 14 | 6 | -0.9 | 1 | -11 | 0.8 | 1.2
CCOC(=O)CN(C(=O)CSc1nnc(CNc2ccc(C)cc2C)n1CC)c1ccccc1 | -1% | -3 | / | / | / | / | 5 | 13 | 0.5 | 1.9
Cc1cc(NC2CCCCC2)nc(NCc2ccccc2)n1 | 21% | 1 | 19 | -60 | -83 | -20 | 104* | 58* | 0.4 | -0.4
CCOc1nc(NC(=O)NS(=O)(=O)c2cccc(Cl)c2)nc(-c2ccccc2)n1 | -7% | 3 | 2.2 | 12 | 14 | -6.2 | -7 | -6 | -1.9 | 1.2
COc1ccc(NS(=O)(=O)c2ccc3nc(COc4cccc5ccccc45)[nH]c3c2)cc1 | / | 32 | / | / | / | / | 32 | 32 | 0.3 | 3.4
COc1ccc(C2CCCN2CC(O)COc2ccccc2C(C)C)cc1 (stereo unspecified) | / | 6 | 6.7 | 6 | -18 | 41 | 0 | 30 | -0.4 | -3.0
Clc1ncccc1-c1nc2ccccc2n1Cc1ccccc1 | 26% | 5 | -81 | -33 | -29 | -14 | -3 | 2 | 0.9 | 0.7
COc1ccccc1N1CCN(C(=O)CN2C(=O)c3ccccc3C2=O)CC1 | -3% | -1 | -1.1 | 4 | 6 | -1.2 | -5 | -6 | -0.5 | 6.7
O=C(O)C1CCCN1c1ncccc1[N+](=O)[O-] (stereo unspecified) | / | -6 | 0.5 | 8 | 6 | 2.6 | -2 | -3 | 0.1 | /
O=C(CCc1nnc(-c2ccsc2)o1)NCc1ccccc1OC(F)(F)F | 0% | -3 | -1.3 | -17 | -1 | -2.5 | 3 | -3 | 0.2 | 1.4
COc1cccc(N2CCN(c3c(C#N)c(C(F)(F)F)nn3C)CC2)c1 | -9% | -3 | / | / | / | / | -16 | 11 | 1.0 | 1.0
CC1Sc2ccc(S(=O)(=O)CCC(=O)NC3CCCC(C)C3C)cc2NC1=O (stereo unspecified) | / | -7 | -2.8 | -2 | 2 | 0.9 | -1 | 15 | 0.9 | -1.5
Cc1ccc(SCC(=O)OCC(=O)NCc2ccco2)cc1 | -6% | / | -1.0 | -2 | -19 | 1.2 | -10 | / | -2.4 | /
Cc1ccc(S(=O)(=O)N2CCCOC2CNC(=O)C(=O)NCc2ccccn2)cc1 (stereo unspecified) | 5% | -6 | -0.7 | 6 | 4 | 0.3 | 1 | -6 | 1.2 | 0.8
CC(C)CCn1c(=O)c2sccc2n2c(CCCC(=O)N3CCC(N4CCCCC4)CC3)nnc12 | / | -26 | 4.4 | 0 | 2 | -2.0 | -5 | 20 | 0.3 | 0.1
Cc1cc(OC(C)C(=O)N2C[C@H]3C[C@@H](C2)c2cccc(=O)n2C3)c2c(C)c(C)c(=O)oc2c1 (stereo partly specified) | / | -7 | -1.3 | / | / | / | -9 | -2 | 0.3 | 4.1
CC(=O)Nc1ccc(S(=O)(=O)NCc2ccc(C(=O)NCc3ccc(Cl)cc3)cc2)cc1 | -5% | 5 | 1.7 | 11 | 13 | -3.1 | -6 | -10 | 0.5 | -3.8
NCCNc1ccc([N+](=O)[O-])c(NC2CC2)c1 | 1% | -30 | 5.4 | -4 | 1 | 14 | -5 | -4 | -1.6 | -2.8
CCOCCCNC(=O)C(c1ccc(OC)cc1)N(Cc1ccc2c(c1)OCO2)C(=O)CNC(C)=O (stereo unspecified) | 13% | -7 | / | / | / | / | -3 | -2 | 0.3 | 1.1
CCOC(=O)c1c(NC(=O)CN(C)C2CCN(C)CC2)sc(C(=O)Nc2ccccc2)c1C | 15% | -4 | 7.1 | -15 | 2 | 6.6 | 8 | 37 | 0.9 | -0.1
O=C(NCc1cccnc1)c1ccc(S(=O)(=O)N2CCCCC2)cc1 | 2% | 2 | / | / | / | / | / | -7 | 0.5 | 9.4
Cc1ccc(C(=O)Nc2cnc3ccccc3c2)cc1 | 0% | -2 | / | / | / | / | 3 | -16 | -11 | 0.9
Cc1ccccc1-c1cc(C(=O)NCc2cccc(C(F)(F)F)c2)nn1CC1CC(c2cccc([N+](=O)[O-])c2)=NO1 (stereo unspecified) | / | / | -13 | 7 | 7 | -7.0 | 13 | / | 1.5 | /
COc1ccccc1-c1nc(SC)n[nH]1 | 12% | -1 | -1.6 | 21 | 19 | 0.3 | -2 | -12 | 1.2 | 2.2
CCCN(CC(=O)Nc1ccccc1OC)C(=O)CCC(=O)c1ccc(OCC)cc1 | -3% | / | 0.9 | / | / | / | -1 | / | -0.1 | /
c1ccc(Cc2c[nH]c3ccccc23)cc1 | 6% | 2 | 0.6 | -10 | -1 | -0.8 | / | 2 | -0.1 | 5.2
CCOC(=O)N1CC=C2C(C#N)=C(N)C(C#N)(C#N)[C@H](c3cccs3)[C@H]2C1 | 4.7µM* | 30 | 6.7 | 3 | -19 | 6.7 | 7 | 1 | -0.1 | ?
CC(=O)Nc1cccc(NC(=O)CSc2ccc(-c3ccco3)nn2)c1 | 6% | -2 | -0.3 | -13 | -13 | -1.4 | 4 | -2 | -0.5 | -0.1
NC(=O)CN1CCN(Cc2ccc3c(c2)OCO3)CC1 | -5% | 11 | 1.4 | 15 | 21 | 3.0 | -2 | -6 | 2.3 | 0.8
CN(C)c1ccc(CN2CCCC(O)C2)cc1 (stereo unspecified) | 7% | -4 | / | / | / | / | 9 | 0 | 0.5 | 1.4
CCOc1ccc(CCNC(=O)COC(=O)Cn2cnc3c2c(=O)n(C)c(=O)n3C)cc1OCC | 2% | 9 | 1.8 | 7 | 9 | 0.7 | 0 | -12 | -0.5 | 1.9
OCCNCC(O)Cn1ccc2ccccc21 (stereo unspecified) | ? | -3 | / | / | / | / | -6 | 2 | -0.3 | 4.6
Cc1ccc(S(=O)(=O)NNC(=O)c2ccncc2)cc1[N+](=O)[O-] | 4% | -6 | 0.4 | 10 | 9 | 2.6 | -2 | -11 | 0.9 | 0.6
CC(C)OC(=O)CC(=O)CSc1nc2c(cc1C#N)CCCCCC2 | ? | 4 | / | / | / | / | -3 | -1 | 0.0 | -2.1
O=C(NC(=S)NCc1ccccc1Cl)c1cccs1 | -11% | / | 3.2 | -17 | -60 | -6.4 | 1 | / | 1.4 | /
Cc1cc(NC(=O)COC(=O)c2cnccn2)ccc1Br | / | / | 1.7 | -2 | 1 | -0.3 | -4 | / | 0.3 | /
Cn1nnc2c[n+](CC(=O)c3ccc4ccccc4c3)cc(Br)c21 | 5% | 3 | 0.6 | -6 | 4 | 3.7 | -5 | -16 | -0.3 | 6.5
Cc1ccc2c(C)c(C(=O)N(Cc3ccncc3)CC3CCCO3)oc2c1C (stereo unspecified) | -12% | ? | -0.8 | -26 | -44 | -5.8 | -4 | 9 | -0.1 | 0.8
COc1ccc(S(=O)(=O)N2CCCCCC2)cc1C(=O)OCC(=O)Nc1cc(C)on1 | 18% | 3 | / | / | / | / | -9 | 2 | -0.4 | -3.9
Cc1ccc(Nc2ccc(-n3ccnc3)nn2)cc1C | -2% | 22 | / | / | / | / | -1 | 2 | 1.1 | 2.0

Assay outcomes: PubChem, several laboratories

A portion of the library, so the mix of outcomes need not match the whole.
